Ecoli rRNA inh: selective bacterial rRNA inhibition in E. coli | E. coli WT GFP vs humanized-ribosome RFP mutants, fluorescence, 24 h; active compounds read low; DMSO median 0, no signal -100 | 350,000 compounds, 1.6% hits | GFP signal change (wild-type ribosome), % (test concentration not listed);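 active = significant combined selectivity score with lowered wild-type GFP, culture density cut under 30%, mutant RFP and density less affected; inactive = any of these conditions unmet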; note: one replicate is shown; some compounds called inactive have numbers as strong as hits
T cruzi repl: blocks replication of Trypanosoma cruzi. T. cruzi beta-gal in NIH3T3, luminescence, 90 h. inhibition, % (no concentration beside the values). 300,000 compounds, 1.4% hits. AID 1885;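 active = mean inhibition across valid replicates above about 55%, limit read from the data; inconclusive = mean below that limit but half or more replicates reach it; inactive = mean below it, under half of replicates reach it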;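 note: signal also drops with host cell toxicity which is not excluded here; 0% = plate median of DMSO wells and 100% = zero luminescence signal; higher percent means less beta-gal luminescence so fewer parasites; stock transfer was 50 nL into about 50 µL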
UCH37 DUB inh: blocks the human deubiquitinase UCH37. purified proteasome/UCH37, Ub-AMC cleavage fluorescence. inhibition, % (test concentration not listed). AID 588478. 330,000 compounds, 0.33% hits. Q9Y5K5;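 active = mean of two replicates above 20%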;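 note: 0% = compound-free wells with enzyme and 100% = wells lacking proteasome; stock transfer was 100 nL into about 20 µL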
Target sequence (Q9Y5K5 whole entry, looked up): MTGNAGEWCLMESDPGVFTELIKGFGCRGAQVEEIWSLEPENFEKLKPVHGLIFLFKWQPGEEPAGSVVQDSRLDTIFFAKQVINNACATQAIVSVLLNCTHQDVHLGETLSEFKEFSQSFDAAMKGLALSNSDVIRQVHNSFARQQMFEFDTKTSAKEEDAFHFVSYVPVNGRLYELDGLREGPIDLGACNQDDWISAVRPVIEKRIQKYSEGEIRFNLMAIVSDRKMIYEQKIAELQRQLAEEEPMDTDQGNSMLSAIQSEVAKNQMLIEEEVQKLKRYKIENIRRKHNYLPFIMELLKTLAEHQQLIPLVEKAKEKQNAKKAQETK
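Reagent: Ub-AMC substrate; assay system: Proteasome-associated human UCH37 deubiquitinase; controls: no-proteasome and no-compound wells; read-out: % inhibition of Ub-AMC cleavage fluorescence; timing: 30 min preincubation with enzyme, 25 min cleavage at room temperature; signal: AMC fluorescence from Ub-AMC cleavage, excitation 355 nm, emission 460 nm; buffer or medium: Tris-HCl pH 7.4 plus ovalbumin, ATP-MgCl2, DTT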
FGF22 binding: shifts melting point of recombinant human FGF22; Q9HCT0; recombinant FGF22 thermal shift, SYPRO orange fluorescence; percent of sucrose octasulfate shift, DMSO zero; calls only at 9.99 µM; 340,000 compounds, 1.5% hits; AID 651658;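 active = melting point raised past a set limit in the mean and every replicate; inconclusive = no clear call; three in four hits are not shown here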
Target sequence (Q9HCT0 whole entry, looked up): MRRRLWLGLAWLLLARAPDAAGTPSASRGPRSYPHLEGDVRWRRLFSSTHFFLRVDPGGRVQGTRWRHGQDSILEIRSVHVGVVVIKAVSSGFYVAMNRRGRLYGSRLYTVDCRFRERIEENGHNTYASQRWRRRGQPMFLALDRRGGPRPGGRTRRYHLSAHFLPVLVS
A1 inh: inhibitors of the anti-apoptotic protein A1, read as caspase activation | MEF A1-2A-BIM cells, Caspase-Glo 3/7 luminescence, 3 h; percent of clofoctol response, vehicle zero | caspase activation, % (concentration not given with the values) | 330,000 compounds, 0.066% hits | AID 2462;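 active = over half of replicate activation scores above 10%, or exactly half above 10 with the replicate mean above 10; inconclusive = replicate mean below 10 yet half the replicates above 10; inactive = over half of replicates below 10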;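 note: wells of about 30 µL received 50 nL stock; many hits fall short of the cut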
E coli growth: inhibitors of Escherichia coli growth. OD600, 23 h; active compounds read low. OD600 absorbance (test concentration not listed). 330,000 compounds, 0.21% hits;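 active = OD600 absorbance below the run mean of sample wells minus 3.6 SD, in any replicate, cut at about 0.56 in these data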;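 note: stock transfer was 300 nL into about 60 µL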
Beta cell apopt: beta cell apoptosis inhibition. 300,000 compounds, 0.8% hits. INS-1E cytokine-induced death, ATP luminescence, 48 h; percent of positive-control rescue, neutral wells zero. protection from apoptosis, % (test concentration not listed);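 active = all replicates at 75% or more, or half of them and the mean; inconclusive = half reach 75% but not the mean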;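 note: 0% = cytokine-treated negative control wells and 100% = positive control rescue; higher means more ATP so stronger rescue from cytokine killing; wells of about 40 µL received 100 nL stock; the first replicate is given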
AF4-AF9 inh: blocks AF4 peptide binding to human AF9; P42568; AlphaScreen, biotin-AF4 peptide binding to FLAG-AF9; inhibition, % at 10 µM; 350,000 compounds, 0.47% hits;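 active = every replicate reaching a set inhibition limit, whatever the replicate mean, cut at about 25% in these data; inconclusive = mean inhibition reaches that limit but some replicates miss it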;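 note: 0% = plate neutral control median and 100% = total signal loss; the record names both 10 and 1 µM as test concentration; the first replicate is given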
Target sequence (P42568 whole entry, looked up): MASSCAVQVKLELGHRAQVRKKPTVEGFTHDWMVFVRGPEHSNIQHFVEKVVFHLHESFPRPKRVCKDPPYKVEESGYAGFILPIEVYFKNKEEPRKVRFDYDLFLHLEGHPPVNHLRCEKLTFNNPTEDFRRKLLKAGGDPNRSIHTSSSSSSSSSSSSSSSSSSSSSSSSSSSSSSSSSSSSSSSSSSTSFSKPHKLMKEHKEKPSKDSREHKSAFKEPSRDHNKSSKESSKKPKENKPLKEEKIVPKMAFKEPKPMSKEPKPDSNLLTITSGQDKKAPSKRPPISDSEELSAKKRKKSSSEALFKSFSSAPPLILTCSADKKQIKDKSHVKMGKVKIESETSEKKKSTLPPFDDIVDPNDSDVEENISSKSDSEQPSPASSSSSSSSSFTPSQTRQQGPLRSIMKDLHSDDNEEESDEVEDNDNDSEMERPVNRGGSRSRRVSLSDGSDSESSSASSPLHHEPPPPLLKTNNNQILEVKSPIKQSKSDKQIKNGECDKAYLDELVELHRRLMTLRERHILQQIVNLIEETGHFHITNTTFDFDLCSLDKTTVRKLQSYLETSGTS
Ecoli rRNA inh OD600: also measured in Ecoli rRNA inh; calls as there; OD600 change, %; measured here: OD600 growth;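 optical density of the mix in the first replicate; 0 = DMSO median and -100 = no signal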
Ecoli rRNA inh RFP: also measured in Ecoli rRNA inh; calls as there; RFP signal change, %; measured here: RFP humanized mutant strains;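 first replicate; 0 = DMSO median and -100 = no signal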
* = called active by the depositor; i = inactive; ? = inconclusive; nt = not tested or not shown. The list is partial (hit frequency here may not be typical).

SMILES	Ecoli rRNA inh	Ecoli rRNA inh OD600	Ecoli rRNA inh RFP	T cruzi repl	UCH37 DUB inh	FGF22 binding	A1 inh	E coli growth	Beta cell apopt	AF4-AF9 inh
C/C(N)=C(/C#N)C(=O)COC(=O)C1CCC(C(C)(C)C)CC1 (centres undefined)	nt	nt	nt	6	1.4	nt	0.6	0.71	0	nt
O=C(NCCCN1CCOCC1)c1ccccc1N1C(=O)[C@@H]2Cc3c([nH]c4ccccc34)C(c3cccc(Cl)c3)N2C1=O (some centres undefined)	12	-10	19	30	3.7	i	0.2	0.68	nt	14
NC(=O)COC(=O)c1cccc(S(=O)(=O)N2CCCCC2)c1	9	2	3.9	-3	1.7	nt	1.2	0.69	-13	-0.6
CCOC(=O)C1=C(N)Oc2cc(O)ccc2C1c1ccc(C)cc1 (centres undefined)	2	-6	4.7	5	1.9	i	-0.1	0.64	6	-5.9
c1cc2c(cc1C1=Nn3c(nnc3C3CCCCC3)SC1)OCO2	nt	nt	nt	-1	4.0	nt	0.3	0.7	-15	nt
COc1ccc(/C=C/C(=O)Nc2ccc(-n3nncc3-c3ccccc3)cc2)cc1OC	-10	2	4.9	18	-28	i	0.1	0.7	5	4.7
Cc1ccc(NC(=O)c2ccc(C(=O)c3ccccc3)cc2)nc1	-6	-1	-4.1	5	-1.9	i	-0.7	0.63	-10	-1.2
COc1cc2nc(NC(=O)c3ccc(Cl)cc3)sc(=O)c2cc1OC	11	9	1.1	-17	-23	i	-0.1	0.64	-2	-1.2
O=C(CN1CCCCCCC1)Nc1cccc(Cl)c1Cl	-39	-53	-6.6	4	5.7	i	0.6	0.62	-1	2.3
O=C(Nc1nnc(CC(c2ccccc2)c2ccccc2)s1)c1ccco1	nt	nt	nt	-5	2.8	nt	1.1	0.73	-5	nt
Cn1cc(C(=O)C(=O)N2CCOCC2)c2ccccc21	10	9	-1.3	-2	6.6	i	0.2	0.69	1	-0.9
CSc1nnc(NC(=O)c2ccc(C)c(S(=O)(=O)N3CCOCC3)c2)s1	nt	nt	nt	-9	0.9	nt	-1.7	0.7	-7	nt
CCOc1ccc(NC(=O)CN(C)C(=O)c2cc(S(=O)(=O)N3CCCCC3)ccc2Cl)cc1OCC	-3	-3	0.9	0	-0.1	i	-0.3	0.63	-9	-6.7
O=S(=O)(c1ccc(NC(=S)N/N=C/c2cccc(Oc3ccccc3)c2)cc1)N1CCOCC1	-3	-1	-1.7	15	nt	i	-1.0	nt	6	0.3
O=C(Oc1cccc2c(=O)[nH]ccc12)c1ccccc1	nt	nt	nt	nt	-0.5	nt	-0.9	0.77	0	nt
COc1ccccc1Nc1ncnc2c1c(C)c(C)n2CCCN(C)C	6	2	1.6	58*	1.2	i	-0.1	0.67	-3	6.9
Cc1oc(-c2cccs2)nc1CN1CCC(c2ccccc2)CC1	16	3	2.7	27	2.6	i	1.1	0.69	-16	1.1
c1ccc(Cn2nnnc2C(c2ccccc2)N2CCN(c3nc4ccccc4s3)CC2)cc1 (centres undefined)	nt	nt	nt	?	4.0	nt	0.4	0.74	1	nt
Cc1cc(OCC(=O)OCC(=O)Nc2cccnc2Cl)ccc1Cl	5	2	0.7	nt	5.2	i	nt	0.67	nt	1.0
CCOc1ccc2nc(NC(=O)CSc3cn[nH]n3)sc2c1	-5	-9	-2.1	-8	5.2	i	-1.5	0.61	-2	7.8
Cc1cccc(NC(=O)c2ccc(CN3CCN(Cc4ccccc4)CC3)cc2)c1	4	5	-1.4	-1	-0.8	i	-1.7	0.62	-4	0.4
COc1ccc(NC(=O)CC2C(=O)N(C)C(=S)N2Cc2ccncc2)cc1 (centres undefined)	6	4	-0.2	-15	1.4	i	0.1	0.72	-4	-3.2
O=C1c2ccccc2C(=O)N1CCCCN(C(=O)c1ccc([N+](=O)[O-])cc1)c1ccc(Cl)cc1	nt	nt	nt	18	-1.3	nt	0.4	0.7	3	nt
O=C(Cc1ccccc1)N1CCC(c2nc3ccccc3[nH]2)CC1	nt	nt	nt	-4	2.5	nt	-0.3	0.65	4	nt
CCCCN(C(=O)CN1C(=O)C2CCCCC2C1=O)c1c(N)n(CCC)c(=O)[nH]c1=O (centres undefined)	-1	1	1.6	-10	1.9	i	-0.8	0.68	-3	7.5
CCOC(=O)C(C)(C)N(Cc1cccc(C)c1)S(=O)(=O)c1ccc(Cl)c([N+](=O)[O-])c1	nt	nt	nt	1	6.8	i	1.4	0.71	-10	9.0
CCCCC(=O)Nc1cc(OCC)c(NC(=O)c2ccccc2[N+](=O)[O-])cc1OCC	14	12	16	-3	2.8	i	0.5	0.66	9	1.3
COc1cc(-c2noc(C)c2C#CC2(N)CCCCC2)cc(OC)c1OC	-10	-13	13	20	-0.6	i	0.3	0.7	-1	8.7
COc1ccccc1CNC(=O)COC(=O)/C=C/c1cccs1	8	7	-0.3	-7	3.1	i	-0.3	0.67	-5	-1.3
CN(C)CC(O)COc1cccc(OCC(O)CN(C)C)c1 (centres undefined)	nt	nt	nt	-2	3.2	nt	0.4	0.69	-5	nt
Cc1cc(C(=O)Nc2ccc(F)cc2C)n(-c2ccccc2)n1	2	1	-2.5	-11	2.9	i	-0.4	0.71	1	1.3
COc1ccc(N=C/C=C2\C=C(c3ccccc3)OC(C)(C)O2)cc1	nt	nt	nt	47	7.8	nt	0.5	0.73	3	nt
CCOC(=O)c1c(NC(C)=O)sc2c(O)cccc12	nt	nt	nt	4	1.7	nt	0.0	0.7	-2	nt
CCCCNC(=O)C1CCCN1C(=O)NC1CCCCC1 (centres undefined)	nt	nt	nt	3	0.2	nt	0.8	0.69	7	nt
CCOC(=O)C1(C(=O)OCC)C(C(=O)c2ccccc2)C1c1ccccc1 (centres undefined)	-2	-22	-3.9	nt	0.3	i	nt	0.68	nt	-3.8
CN(C)C=Nc1c(C(=O)c2ccccc2)sc2nccc(N(C)C)c12	-7	-1	-1.3	-1	2.0	i	0.3	0.71	-10	2.5
CC1CC(C)CN(C(=O)c2ccncc2)C1 (centres undefined)	nt	nt	nt	-6	0.5	nt	-0.7	0.73	-15	nt
CC1CCCC(NC(=O)COC(=O)c2ccc3ncsc3c2)C1C (centres undefined)	16	9	8.5	nt	2.9	i	-0.4	0.63	-3	0.5
O=C(O)c1cccnc1SCc1cn2cc(Cl)ccc2n1	7	4	-3.0	-4	-0.7	i	0.1	0.71	-1	-1.6
CC1CCN(CCCCOc2ccc(C(=O)c3ccccc3)cc2)CC1	nt	nt	nt	34	3.0	nt	1.6	0.71	nt	nt

Reprinted at random: two entries already listed.
SMILES	Ecoli rRNA inh	Ecoli rRNA inh OD600	Ecoli rRNA inh RFP	T cruzi repl	UCH37 DUB inh	FGF22 binding	A1 inh	E coli growth	Beta cell apopt	AF4-AF9 inh
CCOC(=O)C(C)(C)N(Cc1cccc(C)c1)S(=O)(=O)c1ccc(Cl)c([N+](=O)[O-])c1	nt	nt	nt	1	6.8	i	1.4	0.71	-10	9.0
O=C(O)c1cccnc1SCc1cn2cc(Cl)ccc2n1	7	4	-3.0	-4	-0.7	i	0.1	0.71	-1	-1.6

(list continues)
SMILES	Ecoli rRNA inh	Ecoli rRNA inh OD600	Ecoli rRNA inh RFP	T cruzi repl	UCH37 DUB inh	FGF22 binding	A1 inh	E coli growth	Beta cell apopt	AF4-AF9 inh
Cc1ccccc1C(=O)c1cccn1CC(=O)NCCCN1CCCCC1	8	10	3.1	-5	4.2	i	2.0	0.69	-3	-0.6
CCC(C)N1C(=O)CCC1C(=O)N1CCN(c2ccccc2F)CC1 (centres undefined)	nt	nt	nt	-2	2.6	nt	0.9	0.69	-7	nt
O=C(O)CNC(=O)CC1S/C(=N/N=C/c2ccccc2O)NC1=O (centres undefined)	10	6	-0.5	-6	nt	i	0.1	nt	-3	-0.5
CC(C)c1ccc(NC(=O)CSc2nc(=O)n(CCCN3CCOCC3)c3c2CCC3)cc1	0	2	3.3	8	0.3	i	-0.2	0.66	0	0.8
O=[N+]([O-])c1ccc(-c2csc3[n+]2CCS3)cc1	nt	nt	nt	-19	0.7	nt	0.3	0.71	10	nt
CCc1cc2cc3c(cc2nc1SCC(=O)Nc1cc(C)on1)OCO3	nt	nt	nt	-65	0.4	nt	-1.0	0.7	23	nt
CC1(C)S[C@@H]2[C@H](NC(=O)C(NC(=O)N3CCNC3=O)c3ccccc3)C(=O)N2[C@H]1C(=O)O (some centres undefined)	2	4	2.0	-14	2.3	i	0.3	0.62	4	-1.2
COc1ccc(N2C(=O)CSC2c2ccc3c(c2)OCO3)c(OC)c1 (centres undefined)	nt	nt	nt	-5	0.7	nt	-0.2	0.72	0	nt
Cc1ccc(N2C(=O)CC(C)CC2=O)cc1	5	-3	-2.5	1	1.0	i	0.8	0.69	-5	-1.5
CCOC(=O)C1=CNS(=O)(=O)NC1c1ccc(C(=O)OC)cc1 (centres undefined)	6	6	-0.1	nt	0.1	i	nt	0.67	nt	-0.4
COC(=O)C1=CN(c2cc(C)cc(C)c2)C=C(C(=O)OC)C1c1ccc(OC)c(O)c1	0	-2	-1.2	37	-47	i	0.4	0.63	14	2.3
O=C(c1ccc(F)cc1)N1CCN(c2ccc([N+](=O)[O-])c(N3CCCCC3)c2)CC1	nt	nt	nt	4	9.6	nt	0.2	0.67	-1	nt
Cc1cc(NS(=O)(=O)c2ccc(NC(=O)c3ccc([N+](=O)[O-])c(Cl)c3)cc2)no1	4	-9	0.6	-7	5.1	i	0.6	0.66	-6	-0.5
CCOC(=O)c1nn(-c2ccccc2)c2nnc(Cc3ccccc3)c(=O)n12	11	27	4.3	-9	2.7	i	-0.1	0.68	-3	-3.2
CC(C)(C)c1ccc(-c2n[nH]c(=S)n2Cc2ccccc2)cc1	-3	-3	1.6	-10	-0.5	i	-0.1	0.73	0	-3.8
CCOc1cc(/C=C(\CC(=O)O)c2nc3ccccc3s2)ccc1OCC(=O)Nc1cccc(C(F)(F)F)c1	-12	-6	7.1	nt	-21	i	nt	0.65	nt	5.4
Cc1nc(-c2cn[nH]c2-c2ccc(O)cc2O)cs1	nt	nt	nt	1	1.6	nt	0.6	0.72	-3	nt
CC(NCc1cc(Br)ccc1OCC(=O)NCc1ccccc1)c1ccccc1 (centres undefined)	-52	-81	-16	60*	7.3	i	0.3	0.62	4	3.9
CCOc1ccc2nc(N3CCC(C(=O)N4CCN(C5CCCCC5)CC4)CC3)sc2c1	5	5	0.0	7	3.0	i	0.5	0.72	-2	3.8
CN(C)C(CNC(=O)c1cccc(S(=O)(=O)Nc2ccccc2Cl)c1)c1ccccc1 (centres undefined)	8	2	-2.0	nt	3.0	i	nt	0.67	nt	0.9
CN(C)c1ccc(/C=C2\C(=N)N3N=C(CC(=O)N4CCCC4)SC3=NC2=O)cc1Br	-1	3	0.0	-20	4.8	i	-0.2	0.67	-3	-1.3
CC(C)N(C(=O)Nc1ccc2nsnc2c1)C(C)C	-16*	-1.5*	4.2*	17	-23	i	0.3	0.71	-2	-0.8
O=C(CN(Cc1ccc(F)cc1)C(=O)c1ccco1)NCc1ccc(F)cc1	nt	nt	nt	-8	1.4	nt	0.8	0.7	1	nt
